# Screens as filed in PubChem.
# ClpP mod: qHTS Assay for Activators of ClpP; Potency, µM (highest dose often 57.5 µM), inactives show at the top dose activity change, negative = active; purified B. subtilis ClpP, FRET peptide cleavage, 20 min; 340,000 compounds, 1.9% hits; ATP-dependent Clp protease proteolytic subunit (Bacillus subtilis (strain 168)), P80244; AID 651965, 2013; active = well fitted falling curve with a large enough effect; inconclusive = small, poorly fitted or top-dose-only effect; inactive = no such curve, though single readings can be large or run the other way; also: potency is read from the fitted curve at half-maximal effect; the source files actives as falling curves though it sought activators and does not explain the sign; nearly all actives have a fitted effect of over 65% in size; many hits overshoot -100%
# Target sequence (P80244 whole entry, looked up): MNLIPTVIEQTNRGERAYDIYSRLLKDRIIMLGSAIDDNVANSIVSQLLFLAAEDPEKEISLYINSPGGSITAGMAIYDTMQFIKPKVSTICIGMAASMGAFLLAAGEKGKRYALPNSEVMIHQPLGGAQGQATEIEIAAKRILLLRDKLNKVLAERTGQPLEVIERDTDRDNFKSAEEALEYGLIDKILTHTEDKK
#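 ClpP 10 microg/mL final, pH 8 Tris/KCl buffer with BSA, glycerol, Tween-20; compound pinned in; FRET-FV substrate; RT 20 min; Ex320/Em430; ΔFRET vs ADEP 5.8 microM, DMSO, no enzyme.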
# TRPML1 blocker: qHTS for Inhibitors of the Human Mucolipin Transient Receptor Potential 1 (TRPML1). TRPML1-inducible cells, Ca2+ dye fluorescence, FDSS; active compounds read low; inhibition of EC80 agonist-evoked calcium signal. 390,000 compounds, 0.02% hits. Mucolipin-1 (Homo sapiens), Q9GZU1. activity change, negative = inhibition, % (concentration not given with the values); in the data active means activity change below about -50%; inconclusive means about -30% to -50%; inactive means above about -30%;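 also: stimulus is agonist 54-4 at its EC80 concentration; % is scaled to controls: 0 for no effect and ±100 for the full control effect; the text of the record puts the active cut at -80%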
# Target sequence (Q9GZU1 whole entry, looked up): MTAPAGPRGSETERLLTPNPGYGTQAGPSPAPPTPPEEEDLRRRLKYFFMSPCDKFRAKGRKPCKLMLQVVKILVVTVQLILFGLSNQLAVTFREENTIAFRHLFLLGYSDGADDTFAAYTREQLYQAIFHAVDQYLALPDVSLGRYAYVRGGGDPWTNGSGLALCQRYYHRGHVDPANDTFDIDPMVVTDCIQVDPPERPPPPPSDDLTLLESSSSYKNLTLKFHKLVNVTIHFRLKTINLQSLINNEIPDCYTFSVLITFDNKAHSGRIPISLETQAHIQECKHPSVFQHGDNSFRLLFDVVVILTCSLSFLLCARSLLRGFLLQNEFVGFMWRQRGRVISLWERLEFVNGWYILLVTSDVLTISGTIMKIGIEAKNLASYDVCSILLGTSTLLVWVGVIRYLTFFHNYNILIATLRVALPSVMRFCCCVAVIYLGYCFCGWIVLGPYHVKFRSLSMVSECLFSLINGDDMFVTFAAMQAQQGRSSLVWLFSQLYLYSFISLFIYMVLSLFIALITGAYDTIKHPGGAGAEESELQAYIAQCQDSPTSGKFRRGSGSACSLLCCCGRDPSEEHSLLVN
#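 Tet-induced TRPML1-DL cells loaded with Ca8 no-wash calcium dye were read kinetically on FDSS. Compound addition was followed by EC80 agonist 54-4 (4 uM final); inhibition was read over 110 s.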
# gsp antag: qHTS for Antagonists of gsp, the Etiologic Mutation Responsible for Fibrous Dysplasia/McCune-Albright Syndrome: qHTS. gsp-mutant cells, cAMP HTRF, 30 min; control for the full effect not named in the record. Potency, µM (highest dose often 76.9 µM), for inactives: top-dose activity change, negative = inhibition, actives largely listed as inhibitors. 340,000 compounds, 0.4% hits. AID 624288, 2012; active = falling curve of any shape with a large fitted effect; inconclusive = falling curve, mostly with a smaller effect; inactive = flat or rising curve; cell line not stated here;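 also: intracellular cAMP measured with PDE inhibitor Ro 20-1724 present during compound exposure; potency is read from the fitted curve at half-maximal effect; % is scaled to controls: 0 for no effect and ±100 for the full control effect; nearly all actives have a fitted effect of over 65% in size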
#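 HTRF cAMP measurement after 30 min RT detection following 30 min, 37C compound treatment alongside […] (added as 300 uM solution) in G418-selected cells seeded at 2000/well and grown 16–24 h.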
# Menin MLL FP FL: qHTS Assay for Inhibitors Targeting the Menin-MLL Interaction in MLL Related Leukemias: Competition With Fluorescein Labeled MLL-derived Peptide; Fluorescence polarization, fluorescein-MLL peptide displacement from menin; FP activity change, % at 61.4 µM; 290,000 tested, under 10 active; AID 1766, 2009; inconclusive = falling polarisation curve, or a change in total fluorescence; inactive = total fluorescence flat and polarisation flat or rising; no compound was filed as active; the % refers to the polarisation; negative = inhibition;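 also: % of control where 0% means no effect; inhibitors lower the polarisation; unlabelled MLL peptide was the positive control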
# gsp ag: qHTS for Agonist of gsp, the Etiologic Mutation Responsible for Fibrous Dysplasia/McCune-Albright Syndrome: qHTS | gsp mutant cells, cAMP HTRF, 30 min; control for the full effect not named in the record | Potency, µM (titrated, usually from 76.9 µM), without a hit: at the top dose activation (cAMP increase), most hits filed as activators | 340,000 compounds, 0.13% hits; active = well fitted activation curve with a large enough effect; inconclusive = small, poorly fitted or top-dose-only effect, or another doubt; inactive = no such curve, though single readings can be large or run the other way; cell line not stated here;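 also: phosphodiesterase inhibitor Ro 20-1724 added with compounds to block cAMP breakdown; potency is read from the fitted curve at half-maximal effect; nearly all actives have a fitted effect of over 60% in size; about a fifth of the inactives were tested at one dose only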
#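 Cells stably selected in G418 were plated at 2000/well, grown 16-24 hr, then given compounds in DMSO with the PDE inhibitor […] (300 uM solution added) for 30 min at 37C; cAMP was read by HTRF.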
# TRPML1 ag: qHTS for Agonists of the Human Mucolipin Transient Receptor Potential 1 (TRPML1) | Mucolipin-1 (Homo sapiens), Q9GZU1 | TRPML1-expressing cells, Ca2+ dye fluorescence, FDSS; host cell line not named in the record; reference of the full effect not given here | activation, % (no concentration beside the values) | 410,000 compounds, 0.12% hits; in the data active = activation above about 50%; inconclusive = about 30% to 50%; inactive = below about 30%; also: 0% is about no effect; the text of the record puts the active cut at 80%
#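 Tetracycline-induced TRPML1-DL cells are seeded and incubated overnight before loading with a no-wash Ca2+ dye and quencher. Agonist activity is taken from the 110 s fluorescence read following compound pin-transfer on an FDSS, before EC80 54-4 challenge.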
# Active calls of the source: *; u = inconclusive; x = no result given; & = joins results of further samples; [ ] = dose if it differs, or a comment.
SMILES,ClpP mod,TRPML1 blocker,gsp antag,Menin MLL FP FL,gsp ag,TRPML1 ag
O=C(Cn1nc(-c2cccc(Cl)c2)ccc1=O)NCC1COCCO1 (stereo not drawn),x,5,13%,x,-4%[15.4 µM],-0.6
C/C(=N/Oc1nc(C)cc(C)n1)c1ccc(Br)cc1,1.1%,0,8%,2.9,5%,1.9
O=C(NNC(=O)c1cc(-c2ccncc2)nc2ccccc12)c1cccc(Cl)c1,0.4%,9,-8%,x,8%,-0.5
COc1ccc2c(c1OC)C(=O)N(c1cccc(C(F)(F)F)c1)C2,-20%,-5,-24%,4.5,19%,2.2
Brc1cccc(CNCCSc2nnnn2-c2ccccc2)c1,-1.5%,21,x,x,x,-0.1
COc1ccccc1CCNC(=O)C1CCC(=O)N(Cc2ccccc2OC)C1 (stereo not drawn),-0.1%,-9,5%,x,-39%[inhibitor],-0.3
Cc1cc2c3c(c1C)C1(C(=O)N3C(C)(C)CC2C)C(C#N)=C(N)Oc2cc(O)ccc21 (stereo not drawn),-1.0%,17,-13%,1.2,-28%,0.6
C#CCNC(=O)C1=C[C@H](C)[C@@H](CCCO)[C@H](OCC)O1,-1.7%,15,6%,-0.7,0%,-0.5
CC(=O)C1C(c2ccc(OC(F)F)cc2)NC(=O)NC1(O)C(F)(F)F (stereo not drawn),1.1%,29,13%,0.9,5%,-0.6
Cc1sc2ncnc(-n3cnc4ccccc43)c2c1C,28µM*,7,4%,2.1,2%,0.6
Cc1nn(Cc2ccccc2)c(C)c1CNC(=O)c1ccc(F)c(S(=O)(=O)N2CCOCC2)c1,-3.0%,2,-9%,x,20%,0.2
Cc1ccc(N(C)C(=O)C2CCN(S(=O)(=O)c3ccc4c(c3)CCCN4C(=O)C3CCC3)CC2)cc1,1.8%,9,x,x,x,-0.9
CCCCOc1ccc(-c2nnc(-c3cc[n+](C)cc3)o2)cc1,x,3,13%,-3.5,-12%[15.4 µM],-0.7
Cc1ccc(C)c(N2CCN(C(=O)CN3C(=O)COc4ccc(S(=O)(=O)N5CCC(C)CC5)cc43)CC2)c1,1.6%,16,x,x,x,3.1
COc1ccc(/C(C)=N/NC(=O)OC(C)(C)C)cc1[N+](=O)[O-],1.9%,0,3%,-1.9,23%,-0.8
C/C(=N\NC(=O)CC(C)C)c1ccc(N2CCCCC2)cc1,-17%,7,11%,2.7,-42%[inhibitor],-0.1
O=C1NC(Cc2ccccc2)c2nc3cc(Cl)ccc3c(=O)n2-c2ncccc21 (stereo not drawn),-1.8%,24,x,x,7%,0.1
Cc1ccc(Cl)cc1NC(=O)c1cc(S(=O)(=O)N2CCOCC2)cn1C,-6.2%&1.5%,-1&-13,6%,-8.8,-28%,-0.1&-0.9
CC(C)=CC1C=C(C)C(C)C2C(=O)NNC(=O)C12 (stereo not drawn),0.6%,10,0%,2.5,4%,0.1
COc1ccccc1Nc1nc2c(C)cccc2cc1C#N,-7.0%,28,7%,4.2,u,2.8
Cc1noc(C)c1CC(=O)N1CCCC(C(=O)c2ccc(C(C)(C)C)cc2)C1 (stereo not drawn),2.0%,-1,-22%,-1.3,-9%,1.2
CC(C)(C)NC(=O)C(=O)NNC(=O)c1ccccc1,-0.2%,-4,2%,-0.3,-7%[15.4 µM],0.4
CC(C)C(C)N(Cc1cccc(C(=O)O)c1)C(=O)c1ccc2ccccc2n1 (stereo not drawn),1.8%,0,u,x,-25%,4.9
COc1ccc(C(=O)N(C)C2CCCN(Cc3ccccc3F)C2)cc1C (stereo not drawn),x,-11,-8%,6.5,-45%[inhibitor],-0.5

# Quoted from the listing:
# CC(C)=CC1C=C(C)C(C)C2C(=O)NNC(=O)C12 (stereo not drawn) in TRPML1 blocker has 10
# O=C1NC(Cc2ccccc2)c2nc3cc(Cl)ccc3c(=O)n2-c2ncccc21 (stereo not drawn) in ClpP mod has -1.8%
# COc1ccc(/C(C)=N/NC(=O)OC(C)(C)C)cc1[N+](=O)[O-] in ClpP mod has 1.9%

# (more compounds)
SMILES,ClpP mod,TRPML1 blocker,gsp antag,Menin MLL FP FL,gsp ag,TRPML1 ag
Cc1cccc(C)c1NC(=O)C1(N(Cc2ccco2)C(=O)CC2NC(=O)NC2=O)CCCC1 (stereo not drawn),1.0%,-9,13%,4.6,-33%[inhibitor],-0.6
COc1ccc(CCCNC(=O)C2CCC(=O)N(Cc3ccc(Cl)cc3)C2)cc1 (stereo not drawn),-4.9%,-5,-2%,-3.7,-23%,0.1
CC(=O)N1c2ccccc2C(C)(c2ccc(C)cc2)CC1(C)C (stereo not drawn),2.1%,61,x,x,x,1.8
O=C(CNc1ccc(Oc2ccccc2)cc1)N1CCOCC1,-1.1%,47,-9%[15.4 µM],4.3,17%,-0.1
Cc1ccc(NC(=O)c2cccc(S(=O)(=O)N3CCCCC3)c2)cc1,x,14,x,-5.4,-1%[15.4 µM],0.5
COc1ccc(N2CC(NC(=O)c3ccc4c(c3)OCO4)CC2=O)cc1 (stereo not drawn),-5.5%,-23,x,x,x,-0.6
O=C(COC(=O)c1ccccn1)Nc1ccc(S(=O)(=O)N2CCOCC2)cc1,u,-1,1%,-0.3,u,-0.5
Oc1ccc(NCc2ccccc2OCc2ccccc2Cl)cc1,-3.3%,12,x,x,x,0.8
CC(C)Cc1nn2c(=O)cc(COC(=O)c3ccccc3NC(=O)c3ccccc3)nc2s1,0.6%,-56*,x,x,x,-0.1
Fc1cccc(NC(=S)N2CCN(c3ccccn3)CC2)c1,1.9%,-5,-6%,-0.5,6%[15.4 µM],0.8
Cc1c(NC(=O)c2cccc(NC(=O)Cc3ccc(Cl)cc3)c2)c(=O)n(-c2ccccc2)n1C,-0.5%,-12,7%,x,-37%,-0.1
COC(=O)C(CO)NC(=O)C(C)NC(=O)CNC(=O)OCc1ccccc1 (stereo not drawn),x,-2,6%,0.3,26%[15.4 µM],-0.5
O=C(O)c1cnc2ccc(Cl)cc2n1,-4.1%,-9,x,x,1%,0.2
O=C(c1cn2ccccc2n1)N1CCCC(Nc2ccc(F)c(F)c2)C1 (stereo not drawn),-1.6%,2,18%,x,-32%[inhibitor],-0.1
O=C(N/N=C1\CC2CC=CC12)c1ccccc1Cl (stereo not drawn),x,-13,3%,-3.4,16%[15.4 µM],0.5
Cc1ccc(Cn2nnc3c(=O)n(CC(=O)N4CCCc5ccccc54)cnc32)cc1,-1.3%,5,1%,0.1,22%,0.7
CC1CC(NS(=O)(=O)c2cc3c4c(c2)CCN4C(=O)CC3)CC(C)(C)C1 (stereo not drawn),1.2%,-10,-6%,x,7%,0.1
COC(=O)C1=C(N)Oc2cc(C)n(CC3CCCO3)c(=O)c2C1c1ccc(Cl)c(Cl)c1 (stereo not drawn),-3.1%,3,-24%,0.0,-12%,0.9
COC(=O)c1ccc(OCC(=O)NC2CCCCCCC2)cc1,x,19,-5%,x,26%,-0.8
O=C(Cc1c(F)cccc1Cl)Nc1ccc(S(=O)(=O)N2CCOCC2)cc1,-0.3%,17,7%,x,-34%[inhibitor],0.8
O=C(NC(=S)Nc1nc(-c2cccc([N+](=O)[O-])c2)cs1)c1cc(Cl)ccc1Cl,-4.5%,-10,-9%,3.7,13%[15.4 µM],0.9
CN(C(=O)/C=C/c1ccco1)c1ccccc1C(=O)O,-8.1%,-1,6%,0.4,3%,-0.1
COc1ccc(CCN2C(=O)C(Oc3ccccc3C)C2c2ccc3c(c2)OCO3)cc1 (stereo not drawn),-0.7%,0,-12%,-0.5,-3%,2.7
COC(=O)Cc1[nH]nc2c1C(c1ccc(O)c(OC)c1)C(C#N)=C(N)O2 (stereo not drawn),-1.9%,x,1%,3.5,-51%[inhibitor],x

# 2 entries from above, with two lines to a compound.
# Values in the order – ClpP mod	TRPML1 blocker	gsp antag	Menin MLL FP FL	gsp ag	TRPML1 ag
O=C(Cc1c(F)cccc1Cl)Nc1ccc(S(=O)(=O)N2CCOCC2)cc1
  -0.3%	17	7%	x	-34%[inhibitor]	0.8
O=C(O)c1cnc2ccc(Cl)cc2n1
  -4.1%	-9	x	x	1%	0.2

# A stretch of the results above, for reference:
SMILES,ClpP mod,TRPML1 blocker,gsp antag,Menin MLL FP FL,gsp ag,TRPML1 ag
O=C(O)c1cnc2ccc(Cl)cc2n1,-4.1%,-9,x,x,1%,0.2
O=C(c1cn2ccccc2n1)N1CCCC(Nc2ccc(F)c(F)c2)C1 (stereo not drawn),-1.6%,2,18%,x,-32%[inhibitor],-0.1

# (further entries)
SMILES,ClpP mod,TRPML1 blocker,gsp antag,Menin MLL FP FL,gsp ag,TRPML1 ag
O=C(CCl)Nc1cccc(-c2cnc3ccccc3n2)c1,-21%,26,-11%,-0.3,-5%[15.4 µM],1.2
Cc1cc2n(n1)C(c1cc(C(C)(C)C)c(O)cc1O)Nc1ccccc1-2 (stereo not drawn),3.8%,11,x,x,x,0.3
Cc1nc(Nc2cccc(F)c2)c2oc3ccccc3c2n1,x,14,-10%,-6.3,2%,1.4
COc1cc(C(=O)NC(=S)Nc2ccc(N3CCCC3)cc2)cc(OC)c1OC,-1.1%,48,10%,8.3,u,-0.7
COCCNC(=O)c1ccc2c3n(nc2c1)-c1ccccc1CO3,3.4%,-12,4%,1.6,x,1.1
O=C(NCCN1CCc2ccccc2C1)Nc1ccc([N+](=O)[O-])cc1,-1.0%,-14,-7%,0.0,7%,0.4
Cc1c(C)n(C)c2ccc(C(=O)NCCc3ccco3)cc12,u,-18,-9%,2.4,26%,-0.6
Cc1ccc(S(=O)(=O)N2C[C@@H]3CCCC[C@@H]3[C@@H](C)[C@H]2c2cn(Cc3ccccc3)c3ccccc23)cc1,1.7%,0,5%,x,x,-0.1
N=c1oc2ccc(Br)cc2cc1C(=O)NC1CCCCCC1,0.3%,-15,4%,x,u,-0.7
CC(=O)OC(COc1ccc(F)cc1)Cn1cnc2ccccc21 (stereo not drawn),x,-4,x,-2.9,-13%[15.4 µM],0.0
CCc1cnc2c(c1SCC(=O)Nc1ccc(C)cc1C)c(=O)n(C)c(=O)n2C,0.9%,13,x,x,x,-0.7
COc1ccc2cc(CN(CCO)C(=O)c3ccc(Br)cc3)c(=O)[nH]c2c1,-19%,-19,-17%,-0.5,-1%,0.6
COc1ccc(-c2noc(C3CCCN(C(=O)c4ccc(C)cc4)C3)n2)cc1 (stereo not drawn),x,-10,u,-0.3,17%[15.4 µM],1.7
O=C(Nc1ccc2c(c1)CCC2)c1cccc(S(=O)(=O)N2CCN(c3ccccc3)CC2)c1,-10.0%,-3,-6%,0.8,-6%,1.8
